Screens as filed in PubChem BioAssay.
VACV Venus inh = vaccinia inhibition (Venus reporter). actives 0.46% (n = 330,000). Potency, µM (titrated, usually from 36.5 µM), for the others: at the highest dose activity change, negative = inhibition, usual class: inhibitors. AID 720580. Vaccinia virus Venus reporter expression, fluorescence; active means well fitted inhibition curve with a large enough effect; inconclusive means small, poorly fitted or top-dose-only effect; inactive means no such curve, though single readings can be large or run the other way; tested in A549 cells; note: nearly all actives have a fitted effect of over 30% in size; inactives centre near -10
Vaccinia mCherry = inhibitors of vaccinia virus infection (mCherry reporter signal). Vaccinia virus mCherry reporter infection, fluorescence; about a quarter of the inactives have no number. Potency, µM (top dose mostly 36.5 µM), for the others: at the highest dose activity change, negative = inhibition, actives largely listed as inhibitors. actives 0.63% (n = 310,000). AID 720579; active = well fitted inhibition curve with a large enough effect; inconclusive = small, poorly fitted or top-dose-only effect; inactive = no such curve, though single readings can be large or run the other way; tested in A549 cells; note: nearly all actives have a fitted effect of over 35% in size; inactives centre near -10
Starred values were filed as active, the others as inactive; i = inactive; ? = inconclusive; . = not tested or not shown; & = joins results of further samples; [ ] = remark or other dose. % is set by controls: 0 for no effect and ±100 for the full control effect; potency is the fitted concentration of half-maximal effect.

SMILES | VACV Venus inh | Vaccinia mCherry
CN1C(=O)Cc2cc(S(=O)(=O)N3CCN(c4cccc(C(F)(F)F)c4)CC3)ccc21 | -8% | i
O=C(N1CCCCC1)N1CCN(C(=O)N(c2ccccc2)c2ccccc2)CC1 | -27% | -5%
COC1=C(N2CCOCC2)C(=O)c2ccccc2C1=O | 6% | -21%
O=S(=O)(Cc1nnnn1-c1ccc(Br)cc1)c1ccc(F)cc1 | -11% | i
CCCCC1C(=O)N(c2ccccc2)N(c2ccc(O)cc2)C1=O (stereo not drawn) | -10%&-8% | -10%&-13%
O=C(Cc1cccc(C(F)(F)F)c1)NCc1ccc(Cl)cc1 | -5% | -9%
COCOCCn1cc(CN2CCS(=O)(=O)N(Cc3ccc(-c4ccc(Cl)cc4)cc3)C(CC(C)C)C2=O)nn1 (stereo not drawn) | -24% | i
Cc1cc(C)c(NC(=S)N(Cc2cccnc2)Cc2ccco2)c(C)c1 | -8% | i
O=C(CSc1nnc(-c2ccccc2Br)o1)Nc1nncs1 | -16% | -21%
Nc1ccc(C2(c3ccc(N)cc3)C(=O)Nc3ccccc32)cc1 | 0% | i
CNC[C@@H]1Oc2cc(Br)ccc2S(=O)(=O)N([C@H](C)CO)C[C@H]1C | -6% | -2%
CCNC(=O)N1CCCC(C(=O)c2ccc(OC)c(OC)c2)C1 (stereo not drawn) | -19% | i
CNC(=O)C1(c2ccccc2)CCCCC1 | 9% | i
Cc1cccc(Cn2c(=O)n(CCc3ccccc3)c(=O)c3sc4ccccc4c32)c1 | 3% | -1%
O=c1c2c([nH]c3ccccc13)CCCCC2 | -13% | -9%

A draw from above in order of count of non-hydrogen atoms, ascending:
SMILES | VACV Venus inh | Vaccinia mCherry
O=C(CSc1nnc(-c2ccccc2Br)o1)Nc1nncs1 | -16% | -21%
O=S(=O)(Cc1nnnn1-c1ccc(Br)cc1)c1ccc(F)cc1 | -11% | i
CCCCC1C(=O)N(c2ccccc2)N(c2ccc(O)cc2)C1=O (stereo not drawn) | -10%&-8% | -10%&-13%

Remaining list, next part
SMILES | VACV Venus inh | Vaccinia mCherry
COc1ccc(-c2csc(NC(=O)CSc3n[nH]c(N)n3)n2)cc1 | -14% | -14%
C=C(C)C(=O)Nc1cccc(C2=NOC3(C2)C[C@@H](C(N)=O)N(C(=O)[C@H]2CCC(=O)N2)C3)c1 (stereo partly drawn) | -8% | -15%
O=S(=O)(Nc1cccnc1)c1ccc(C2CCCCC2)cc1 | ? | ?
CCc1ccccc1Nc1nn2c(=O)c3ccc(C(=O)NC(C)C)cc3nc2s1 | -19% | -16%
COC(=O)c1sc(NC(=O)Cc2cccs2)nc1C | -13% | i
C=CCNc1nc(Cl)ncc1F | -10% | -17%
COc1ccc(C2=NN(C(=O)CN3CCCCC3)C(c3ccc(C)cc3)C2)cc1 (stereo not drawn) | -23% | -13%
COc1ccc(CCNC(=O)CCc2c(C)nc3c(c(C)nn3-c3ccc(C)c(C)c3)c2C)cc1OC | -2% | -10%
CCCCN1C(=O)c2ccc(C(=O)Nc3ccccc3N3CCOCC3)cc2C1=O | -11% | i
COC(=O)CCCC1=CC2=CC(=O)C(C)(OC(=O)c3cccs3)C(=O)C2=CN1Cc1ccccc1 (stereo not drawn) | -3% | 7%
c1ccc(C2CC(c3cccs3)=NN2c2ccccc2)cc1 (stereo not drawn) | 27% | ?
CCOP(=O)(OCC)C(NC(=O)Nc1ccccc1)C(N)=O (stereo not drawn) | -6% | -4%
COc1ccc(NC(C)=O)c([N+](=O)[O-])c1[N+](=O)[O-] | 3% | ?
COc1ccc(CCNC(=O)c2c(C)nc3ccccn23)cc1OC | -13% | -13%
CCOc1ccc(C(=O)NCC(=O)OCc2c(C)noc2C)cc1OCC | -4% | 2%
O=C(NCCOc1ccc(Cl)cc1)c1ccco1 | -21% | i
CCN(c1cccc(C)c1)C(CNS(=O)(=O)c1ccccc1)c1ccccc1 (stereo not drawn) | 7% | 1%
CCN(CC)CC(O)COc1ccc2c(c1)OCO2 (stereo not drawn) | -14% | .
CCSc1cnnc2ccccc12 | 1% | -5%
CCC(C(=O)Nc1cc(OC)c(NC(=O)c2ccccc2)cc1OC)c1ccccc1 (stereo not drawn) | -11% | -12%
CCC(CC)c1nnc(NC(=O)C2CCN(C(=O)c3ccco3)CC2)s1 | 7% | -9%
Cc1cc(/C=C(/C#N)c2nc3ccccc3[nH]2)c(C)n1-c1cc(C(=O)O)cc(C(=O)O)c1 | 0% | i
CCCCC(=O)NC1(C(F)(F)F)C(=O)Nc2c1c(=O)[nH]c(=O)n2Cc1ccco1 (stereo not drawn) | 1% | -6%
COCCN(C(=O)c1ccc(C)c(S(=O)(=O)N2CCOCC2)c1)c1c(N)n(CC(C)C)c(=O)[nH]c1=O | -11% | -14%
Cc1ccc(S(=O)(=O)CC(=O)c2ccccc2)cc1 | -4% | -9%
O=C(C1CCC(C(=O)N2CCc3ccccc32)CC1)N1CCc2ccccc21 (stereo not drawn) | -1% | .
CC1CN(C(=O)CSc2nc(-c3ccccc3)cs2)CC(C)O1 (stereo not drawn) | -12% | .
COc1cccc(N=Nc2c(N)[nH]n3c(=O)cc(-c4ccccc4)nc23)c1 | -2% | .
CC(=O)Nc1ccc(C(=O)NNC(=O)CCCCC(=O)NNC(=O)c2ccc(NC(C)=O)cc2)cc1 | 0% | 0%
Cc1c([N+](=O)[O-])c(C(=O)Nc2ccc3c(c2)OCCO3)nn1C | ? | ?
CC(C)CN1C(=O)c2ccc(NC(=O)c3ccco3)cc2C1=O | 0% | i
COC(=O)C[C@@H]1C=C[C@@H](NS(=O)(=O)c2ccc(OC)cc2)[C@@H](CO)O1 | -16% | -11%
OC(COc1ccc2ccccc2c1Cl)CN1CCOCC1 (stereo not drawn) | -23% | -19%
CCCCn1c(NC(=O)c2ccccc2)c(C#N)c2nc3ccccc3nc21 | -13% | -2%
C=C(C)CNC(=S)N/N=C/c1ccccc1OCC(=O)O | -11% | i
O=C(N/N=C/c1cccc(Oc2ccccc2)c1)c1cccc(O)c1 | -23% | -23%
CCOC(=O)c1ccc(COc2ccc(C(C)C)cc2)o1 | 2% | i
COc1ccc2c(c1)-c1nc(NC(=O)c3ccc(Cl)cc3)sc1CC2 | ? | ?
CCOC(=O)c1[nH]c(C)c(C(=O)N2CCC3(CC2)OCCO3)c1C | -5% | -13%
Cc1n[nH]c(C)c1CCNCc1ccc(OCC(O)CN2CCCCC2)cc1 (stereo not drawn) | -3% | -4%
COc1ccc(C(C)NC(=O)c2ccc([N+](=O)[O-])cc2)cc1OC (stereo not drawn) | 4% | i
O=P1(c2ccccc2)CC=CC1 | 4% | 13%
CC(=O)c1cccc(Nc2nn(-c3ccc(OC(F)(F)F)cc3)nc2C(C)=O)c1 | -16% | -13%
COc1cc(NCCCCCCN)c2ncccc2c1OC | -5% | -25%
O=C(COc1ncnc2ccccc12)Nc1cccc(S(=O)(=O)N2CCOCC2)c1 | -7% | -6%

Not a retest: entries from further up.
SMILES | VACV Venus inh | Vaccinia mCherry
CC(=O)c1cccc(Nc2nn(-c3ccc(OC(F)(F)F)cc3)nc2C(C)=O)c1 | -16% | -13%
COc1cc(NCCCCCCN)c2ncccc2c1OC | -5% | -25%
O=C(COc1ncnc2ccccc12)Nc1cccc(S(=O)(=O)N2CCOCC2)c1 | -7% | -6%

Following part:
SMILES | VACV Venus inh | Vaccinia mCherry
COCC1CCCN(C(=O)c2cc(COc3cccc4cccnc34)on2)C1 (stereo not drawn) | -10% | -17%
COC(=O)c1cc2sccc2n1Cc1nc(-c2ccc(OC)cc2)oc1C | 0% | -15%
CCc1nc(C)cc(N)c1OCc1ccccc1 | -13% | i
Cc1cc(C)c(NC(=O)CSc2ccc(-c3ccccn3)nn2)c(C)c1 | -8%&-15% | -13%&-16%
CCN(CC)CCN(C(=O)c1ccc(S(=O)(=O)N(C)C2CCCCC2)cc1)c1nc2c(C)cccc2s1 | -9% | -17%
CNC(=O)CN1C(=O)c2ccccc2S1(=O)=O | 8% | i
O=C(NCC1(c2ccccc2)CCCC1)C(=O)Nc1cccc(C(F)(F)F)c1 | -24% | -18%
C#CCN(C[C@@H]1[C@@H](OC(=O)NCCCCCC)[C@@H](OC(=O)NCCCCCC)Cn2c(=O)n(CCCCCC)c(=O)n21)S(=O)(=O)c1ccc(C)cc1 | -22% | i
Cc1noc(C)c1CCC(=O)N1CCCC(CCC(=O)NCc2ccc(F)c(F)c2)C1 (stereo not drawn) | -6% | -23%
COc1ccc(S(=O)(=O)N2CCOCC2)cc1NC(=O)c1ccc(=O)[nH]c1 | -8% | -13%
O=C(Nc1nc(-c2cccnc2)cs1)c1ccc(S(=O)(=O)N2CCOCC2)cc1 | -15% | i
COc1cc2c(cc1OC)C(c1ccccc1)=NCC2 | -13% | -15%
Nc1ncncc1-c1ccccc1Cl | 7% | -14%
O=C(COc1ccccc1C(=O)Nc1ccccc1)c1ccc(F)cc1 | -4% | -2%
O=C1N[C@@H](Cc2ccccc2)C(=O)N2CCC[C@@H]12 | -6% | i
Cc1ccc(SCC(=O)n2nc(C)cc2C)cc1 | -19% | -8%
Cc1cc(C)cc(NS(=O)(=O)c2ccc(N3CCCCS3(=O)=O)cc2)c1 | -28% | -15%
Cc1ccc(Cn2cc(CCC(=O)NCc3ccccc3F)c3ccccc32)cc1 | -11% | -11%
COC(=O)c1sc(NC(=O)c2ccco2)nc1C | -13% | -3%[1.46 µM]
O=c1c2ccccc2n2cnnc2n1-c1ccccc1 | -15% | .
O=C(NCCC1=CCCCC1)c1ccc2c(c1)sc1nc(-c3ccc(F)cc3)cn12 | -14% | -13%
C=CCOc1ccc(C2=NOC(C(=O)Nc3ccc4c(c3)OCCO4)C2)cc1OC (stereo not drawn) | -26% | ?
O=C(NCCc1csc(-c2cccnc2)n1)c1cccc2ccccc12 | -13% | 0%
O=C(CSc1oc(-c2ccc(F)cc2)nc1S(=O)(=O)c1ccccc1)NCC1CCCO1 (stereo not drawn) | -12% | -14%
CCOC(=O)C1=C[C@@H](C(C)(C)C)N(S(=O)(=O)c2ccc(C)cc2)[C@H]1c1ccc(OC)cc1 | -2% | 11%
COc1ccc(NC(=O)COc2ccc(N(C)S(=O)(=O)c3ccc(Cl)cc3)cc2)cc1OC | -22% | ?
O=C1[C@@H]2CSCN2C(=O)CN1Cc1cccc(C(F)(F)F)c1 | -7% | i
NC(=NCCc1c[nH]c2ccccc12)NS(=O)(=O)c1ccc(F)cc1 | -29% | i
Cc1occc1C(=O)Nc1c(F)cc(F)cc1Br | -5% | -9%
CCn1c(=O)c([N+](=O)[O-])c(N2CCOCC2)c2ccccc21 | -11% | i

Three records picked at random from those above:
SMILES | VACV Venus inh | Vaccinia mCherry
O=C(NCCc1csc(-c2cccnc2)n1)c1cccc2ccccc12 | -13% | 0%
Cc1occc1C(=O)Nc1c(F)cc(F)cc1Br | -5% | -9%
Cc1cc(C)cc(NS(=O)(=O)c2ccc(N3CCCCS3(=O)=O)cc2)c1 | -28% | -15%

Grouped by structure, those above with bromine.
SMILES | VACV Venus inh | Vaccinia mCherry
O=S(=O)(Cc1nnnn1-c1ccc(Br)cc1)c1ccc(F)cc1 | -11% | i
O=C(CSc1nnc(-c2ccccc2Br)o1)Nc1nncs1 | -16% | -21%
CNC[C@@H]1Oc2cc(Br)ccc2S(=O)(=O)N([C@H](C)CO)C[C@H]1C | -6% | -2%
Cc1occc1C(=O)Nc1c(F)cc(F)cc1Br | -5% | -9%

(more compounds)
SMILES | VACV Venus inh | Vaccinia mCherry
COc1ccc(-n2c(CCc3ccccc3)nnc2SCC(=O)c2ccc(Cl)cc2)cc1 | ? | -27%
COc1ccc(CCC(=O)N(C)CC(=O)Nc2ccc(Cl)c(C(F)(F)F)c2)cc1 | ? | -29%
CC(C)(C)NS(=O)(=O)c1ccc(OCC(=O)NCc2ccco2)cc1 | -5% | -2%
O=C1CCN1C1(C(=O)NC2CCCCC2)CCCC1 | -15% | -13%
O=C(O)c1ccccc1-c1ccccc1C(=O)Nc1cccc(Br)c1 | -8% | i
CCOC(=O)c1ccc(CNC(=O)C2CCCCC2C(=O)OCC(F)(F)F)o1 (stereo not drawn) | -14% | -14%
Cc1ccccc1-c1cccc([C@@H]2C[C@H]3C(CN2)CON3C)c1 (stereo partly drawn) | 6% | -22%
CC1(C)C(=O)C=C[C@@]2(C)C1=C(O)C(=O)[C@@]1(C)C2CC[C@@]2(C)C(c3ccoc3)C[C@H]3O[C@@]321 (stereo partly drawn) | ? | ?
O=C(NNC(=O)c1cc(-c2ccncc2)nc2ccccc12)c1cccc(Cl)c1 | -16% | i
Cc1c(OC(C)C(=O)NCCCN2CCCC2=O)ccc2c3c(c(=O)oc12)CCCC3 (stereo not drawn) | -22% | i
COc1ccc([N+](=O)[O-])cc1NCC(=O)Nc1cccc(S(=O)(=O)N2CCCC2)c1 | -22% | -3%
CC1(C(=O)NS(=O)(=O)C2CC2)CCN(C(=O)c2ccc(F)cc2Cl)C1 (stereo not drawn) | 3% | 15%
O=C(CNc1cccc(C(F)(F)F)c1)N/N=C/c1cccc(Br)c1 | ? | -24%
CCOC(=O)C1(C)CCN1C(=O)c1ccc(C#N)cc1 (stereo not drawn) | -6% | -3%
Nc1c(Br)cc(/C=C2\C=Cc3ccccc32)cc1Br | -14% | -18%
CCOC(=O)[C@]12CCC=C1N(Cc1ccc(Cl)cc1Cl)C(=O)[C@H](CC(=O)N1CCSCC1)C2 | -4% | -1%
Cc1cc(C)cc(N(C(=O)c2csnn2)C(C(=O)NC(C)(C)C)c2cccs2)c1 (stereo not drawn) | -4% | -2%
COc1ccc(OC)c(C2=NO[C@@](CC(=O)O)(C(=O)Nc3ccc4c(c3)OCCO4)C2)c1 | -16% | -14%
